GLA inh pH 4.5 = blocks human alpha-galactosidase A at pH 4.5. purified enzyme, 4-MU-alpha-Gal fluorescence, pH 4.5. activity change, negative = inhibition, % at 105 µM. 230,000 tested, under 10 active; inconclusive = small, poorly fitted or top-dose-only inhibition, or a rising curve; inactive = flat fitted curve, though single readings scatter; no compound was filed as active;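 further: 0% = full activity with enzyme and -100% = basal without enzyme; dose as in the result columns while the protocol names 77 µM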
Target sequence (P06280 whole entry, looked up): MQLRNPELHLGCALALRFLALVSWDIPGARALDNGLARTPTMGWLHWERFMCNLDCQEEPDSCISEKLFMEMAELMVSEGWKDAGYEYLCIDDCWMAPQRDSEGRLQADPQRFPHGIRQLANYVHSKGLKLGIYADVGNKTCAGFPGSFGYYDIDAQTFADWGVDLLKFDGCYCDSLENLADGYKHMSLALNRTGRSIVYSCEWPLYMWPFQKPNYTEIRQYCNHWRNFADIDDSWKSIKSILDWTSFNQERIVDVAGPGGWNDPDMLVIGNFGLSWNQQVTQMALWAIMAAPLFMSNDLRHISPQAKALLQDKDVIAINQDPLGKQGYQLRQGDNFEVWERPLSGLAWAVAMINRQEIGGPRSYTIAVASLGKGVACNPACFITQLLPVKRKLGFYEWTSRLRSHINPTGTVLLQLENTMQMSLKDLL
Rango complex inh = inhibitors of Rango-importin beta complex formation | AID 540263 | Rango CFP/YFP FRET sensor + importin beta, 45 min | Q14974 | Potency, µM (series often up to 92.2 µM), for the others: at the top dose inhibition of complex formation | actives 0.031% (n = 340,000); active = rising FRET ratio curve, often small or poorly fitted; inconclusive = mostly compound fluorescence or quenching in the first reads; inactive = flat curves in all reads;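 further: potency means the concentration at half of the fitted maximal effect; 0% = DMSO wells and 100% = buffer wells lacking importin beta; nearly all actives have a fitted effect of over 15% in size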
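FRET biosensor Rango (snurportin 1 IBB between N-terminal EYFP and C-terminal Cerulean), 50 nM in PBS/1 mM DTT/0.02% Tween-20/0.1% BSA, preincubated 5 min RT with compound; 0.125 microM importin beta added, 45 min RT, CFP/YFP FRET ratio read.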
miR-21 FLuc = raises the signal of a miR-21 reporter | HeLa miR-21 FLuc reporter, luciferase, 48 h | Potency, µM (highest dose often 38.3 µM), inactives show at the top dose reporter change, positive = more light | 340,000 tested, under 10 active | AID 2288; active = well fitted rising curve with a large enough effect; inconclusive = small, poorly fitted or top-dose-only effect; inactive = no such curve, though single readings can be large or run the other way;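 further: % of control where 0% means no effect; miR-21 action dims this reporter so a rising signal means less miR-21 action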
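Using DMEM plus 10% FBS, HeLa miR-21-FLuc cells are incubated with test compounds (final up to about 40uM) for 48 hours; firefly luciferase signal is then imaged following reagent-mediated lysis.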
Rango dissoc inh = inhibitors of RanGTP-induced Rango-importin beta complex dissociation | O95149+P62826 | Biochemical FRET Rango-importin beta, RanGTP-induced dissociation | Potency, µM (series often up to 46.1 µM), for the others: at the highest dose activity change, negative = inhibition | actives 0.071% (n = 340,000); active means falling FRET ratio curve, often poorly fitted, with flat reads before Ran was added; inconclusive means other falling curves, or compound fluorescence or quenching; inactive means flat or rising ratio curve;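 further: potency means the concentration at half of the fitted maximal effect; % of control where 0% means no effect; nearly all actives have a fitted effect of over 45% in size; -100% = wells without RanGTP and RCC1; the record marks most hits as doubtful in a second field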
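Recombinant Rango FRET biosensor (EYFP–snurportin 1 IBB–cerulean CFP10) at 0.1 uM premixed with 0.25 uM importin beta in PBS, 1 mM DTT, 0.02% Tween-20, 0.1% BSA. Compound added 5 min; RanGTP-RCC1 (0.6 uM Ran, 2 mM GTP, 0.2 uM RCC1) then triggers release, read at 45 min.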
* = called active by the depositor; ? = inconclusive; . = no result given; & = joins results of further samples. This is a subset; rates above refer to the full screens.

SMILES | GLA inh pH 4.5 | Rango complex inh | miR-21 FLuc | Rango dissoc inh
Cc1ccc(CN(C(=O)c2cc3ccccc3oc2=O)C2CCS(=O)(=O)C2)cc1 (stereo not given) | -4.2 | 3.7% | -52.6% | 10.7%
COc1ccc(Cl)cc1NC(=S)NN1CCOCC1 | 7.7 | -0.3% | -2.5% | 0.9%
Cc1ccc(NC(=O)CN2CCc3ccccc3C2)cc1S(=O)(=O)N1CCOCC1 | -1.2 | -2.1% | -6.3% | 0.5%
CC(=O)Nc1ccc(S(=O)(=O)Nc2nc3ccccc3nc2Sc2nncn2C)cc1 | -3.0 | ? | -8.1% | ?
CCN(CC(=O)NCc1cccs1)C(=O)c1ccc(-c2ccccc2F)o1 | . | 6.1% | . | -17.0%
CCN(CC(=O)Nc1c(F)cccc1F)C(=O)CN1C(=O)NC2(CCCC2)C1=O | . | 2.8% | . | 7.8%
COc1ccccc1C(=O)NC(=S)Nc1cc(C(=O)O)ccc1C | -3.2 | -1.9% | -4.7% | -1.2%
Cc1cc(=O)oc(C)c1C(=O)NNC(=O)C1(C)CC1Br (stereo not given) | 2.9 | 1.6% | -7.5% | -0.7%
CC1=NNC(=O)C1CCC(=O)N/N=C\c1cccc(Cl)c1 (stereo not given) | -0.1 | -3.0% | -5.4% | 4.1%
CCOc1ccc(NC(=O)CS(=O)CC(=O)NC2CCCc3ccccc32)cc1 (stereo not given) | -0.8 | 1.0% | 1.9% | -2.5%

Only miR-21 FLuc, GLA inh pH 4.5 and Rango dissoc inh (5 entries from above):
Compound | miR-21 FLuc | GLA inh pH 4.5 | Rango dissoc inh
CC1=NNC(=O)C1CCC(=O)N/N=C\c1cccc(Cl)c1 (stereo not given) | -5.4% | -0.1 | 4.1%
Cc1ccc(CN(C(=O)c2cc3ccccc3oc2=O)C2CCS(=O)(=O)C2)cc1 (stereo not given) | -52.6% | -4.2 | 10.7%
CCN(CC(=O)NCc1cccs1)C(=O)c1ccc(-c2ccccc2F)o1 | . | . | -17.0%
CCN(CC(=O)Nc1c(F)cccc1F)C(=O)CN1C(=O)NC2(CCCC2)C1=O | . | . | 7.8%
COc1ccc(Cl)cc1NC(=S)NN1CCOCC1 | -2.5% | 7.7 | 0.9%

(further entries)
SMILES | GLA inh pH 4.5 | Rango complex inh | miR-21 FLuc | Rango dissoc inh
c1ccc(C2c3c(ccc4ccccc34)Oc3ncn4nc(-c5ccco5)nc4c32)cc1 (stereo not given) | -3.0 | 0.9% | 3.1% | -9.0%
CSc1ccc(CN(C)C(=O)CSCC(=O)Nc2cc(C)on2)cc1 | . | 2.8% | -0.7% | 19.1%
COc1cc2c(cc1OC)C(C)N(C(=O)CCNC(=O)c1ccccc1)CC2 (stereo not given) | . | 0.7% | 0.1% | 4.7%
CCOCCOc1cc(NCc2ccccc2)c2ncn(C(C)C)c2c1 | . | ? | . | ?
COc1ccc(C(c2nnnn2C2CCCCC2)N2CCN(c3ccccc3F)CC2)cc1 (stereo not given) | -4.0 | 3.5% | -7.9% | -6.8%
CCCCC(=O)NC(Nc1ccc(C)cn1)(C(=O)OCC)C(F)(F)F (stereo not given) | -1.2 | 0.2% | -4.7% | 9.1%
Cc1cccc(C(=O)NNC(=O)c2csc(N3CCOCC3)n2)c1C | . | -0.1% | . | ?
CCn1nc(C(=O)N[C@@H](CCSC)c2nc3ccccc3[nH]2)c2ccccc2c1=O | -8.3 | 0.1% | -45.9% | -2.0%
O=C(Cn1nnc(-c2ccccc2F)n1)Nc1ccc(C(=O)N2CCOCC2)cc1 | 2.8 | 0.0% | -5.8% | 0.9%
COc1ccc(N(C(=O)c2ccco2)C(C(=O)NC2CCCC2)c2ccc(OC)c(OC)c2)cc1 (stereo not given) | . | -0.4% | -1.4% | -5.0%
O=C(O)C1C2C=CC(C2)C1C(=O)Nc1ccc(Cl)c(Cl)c1 (stereo not given) | . | -1.9% | -0.7% | 4.3%
CCOC(=O)c1ccc(NC(=O)COc2ccc(S(=O)(=O)NC(C)CC)cc2)cc1 (stereo not given) | 1.6 | -1.3% | 3.5% | -15.5%
CCOC(=O)C1CCCN(C(=O)/C=C/c2ccc([N+](=O)[O-])cc2)C1 (stereo not given) | 3.9 | -1.2% | 0.4% | 6.4%
COc1ccccc1NC(=S)NNC(=O)c1nn(C)c(C)c1Cl | -1.5 | -0.4% | -15.0% | -10.2%
COc1cccc(NC(=O)CN(C)C(=O)c2ccccn2)c1 | . | -5.4% | . | 15.7%
Cc1cc2c(cc1[N+](=O)[O-])NC(CNC(C)C)CC2 (stereo not given) | 8.1 | -0.2% | -2.9% | 24.9%
COc1ccccc1/C=N/NC(=O)c1nnn(-c2nonc2N)c1-c1cccs1 | . | 1.7% | -1.3% | -15.8%
C[C@H](NC(=O)c1nc[nH]c1C(=O)N(C)Cc1ccccc1)C(=O)OC(C)(C)C | . | 0.1% | . | -2.5%
Cc1cc(C)cc(N(CC(=O)NC2CCCC2)C(=O)CNC(=O)c2cccs2)c1 | . | -1.1% | 0.4% | -0.2%
CCN(C(=O)COC(=O)c1ccc2ccccc2c1)c1c(N)n(Cc2ccccc2)c(=O)[nH]c1=O | . | -0.7% | . | -7.5%

Whole records from above. Order of screens: GLA inh pH 4.5	Rango complex inh	miR-21 FLuc	Rango dissoc inh
CCOC(=O)c1ccc(NC(=O)COc2ccc(S(=O)(=O)NC(C)CC)cc2)cc1 (stereo not given) across the screens: 1.6	-1.3%	3.5%	-15.5%
COc1ccccc1NC(=S)NNC(=O)c1nn(C)c(C)c1Cl across the screens: -1.5	-0.4%	-15.0%	-10.2%

Later entries.
SMILES | GLA inh pH 4.5 | Rango complex inh | miR-21 FLuc | Rango dissoc inh
Cc1ccc(-c2nn(-c3ccccc3)cc2/C=N/NC(=O)CSc2nnc(C)n2-c2ccccc2)cc1 | -12.1 | 2.8% | -0.6% | 3.5%
CCOC(=O)NCc1ccccc1 | . | 1.2% | -0.6% | 9.0%
Cc1nn(CCC(=O)NNC(=S)Nc2ccccc2)c(C)c1Br | -2.2 | 0.6% | -1.9% | 10.2%
CC(C)CNC(=O)[C@H](Cc1ccccc1)NC(=O)c1cccs1 | . | -0.8% | -1.9% | 0.8%
O=C(CCc1nnc2ccc(NCc3ccco3)nn12)Nc1ccccn1 | . | -1.7% | 1.0% | 0.3%
COc1ccccc1C(=O)NC(=O)COC(=O)C1(C)CC1(Cl)Cl (stereo not given) | . | -5.8% | . | -11.9%
O=C(/C=C/c1cccc([N+](=O)[O-])c1)Nc1ccc(NC(=O)c2cccs2)cc1 | -5.4 | 1.5% | -7.5% | 15.0%
O=C(C1CCN(S(=O)(=O)c2c(Cl)cccc2Cl)CC1)N1CCCC1 | . | -3.9% | . | -6.0%
CN(c1ccccc1)S(=O)(=O)c1ccc(C(=O)OCC(=O)NCc2cccs2)cc1 | -1.9 | 2.3% | 27.0% | 9.3%
COc1ccc(OCC(=O)Nc2cccc3cccnc23)cc1 | 8.0 | 0.6% | -25.6% | 5.6%
Cc1ccnn1C(C)C(=O)O (stereo not given) | 3.3 | 1.1% | 1.9% | 11.0%
O=C(c1cc2ccccc2oc1=O)N(Cc1ccccc1)C1CCS(=O)(=O)C1 (stereo not given) | 8.5 | 0.9% | -47.9% | 14.7%
Cc1ccc(C)c(S(=O)(=O)NCCC(=O)N2CCCC(C(N)=O)C2)c1 (stereo not given) | . | 0.1% | . | 0.3%
Cc1ccc(Nc2nc(Nc3ccc(C)cc3)nc(SC3=NCCS3)n2)cc1 | -14.6 | 4.5% | 19.6% | -4.2%
O=C(CSCc1ccco1)N1CCc2ccccc21 | . | 0.1% | -59.3% | 18.8%
CCN1C(=NCCc2ccccn2)N[C@@H](c2cccc(F)c2)C(C(=O)OC)=C1C | . | -6.5% | 0.9%&0.4% | -3.6%
O=c1[nH]c(CN2CCN(c3ccccc3O)CC2)nc2ccccc12 | -2.3 | 2.6% | -2.1% | ?
COc1ccc(OC)c(-c2csc(NC(=O)Cc3ccccc3)n2)c1 | . | -5.4% | -8.5% | -11.8%
CC(C)=NOc1nc(N(C)C)nc(N2CCOCC2)n1 | 2.1 | 2.8% | -4.7% | -4.3%
COc1ccccc1-n1c(SCC(=O)N2CCc3ccccc32)nc2c(c1=O)SCC2 | 5.1 | -14.0% | 1.9% | -4.8%
CC(=O)C1=C(C)NC(C)=C(C(C)=O)C1c1cn(-c2ccccc2)nc1-c1cccs1 | -2.8 | ? | -10.5% | ?
C=CCSc1nnc2c(n1)[nH]c1c(C)cccc12 | 2.3 | 1.0% | -21.8% | 0.5%
O=C(CCCn1c(SCC(=O)NCCc2ccccc2)nc2ccccc2c1=O)NCC1CCCO1 (stereo not given) | -2.4 | 3.3% | 1.1% | 7.3%
CC(=O)Nc1ccc(S(=O)(=O)NCCc2csc(C)n2)cc1 | 3.6 | -1.3% | -5.4% | 13.2%
O=C(CNS(=O)(=O)c1ccccc1)NCC(=O)OCc1ccc(Br)cc1 | -6.3 | -0.7% | 1.8% | -4.2%
O=C(/C=C(\O)c1ccccc1)C(=O)NNC(=O)c1ccccc1[N+](=O)[O-] | . | -2.9% | -9.0% | 0.4%
Cc1ccccc1Nc1nnc(C)c(=O)[nH]1 | -9.8 | 5.8% | -7.4% | -9.0%
Cc1cc(C)nc(N(C#N)Cc2cccc3ccccc23)n1 | -15.7 | 2.7% | -9.0% | 9.9%
Cc1cc(C)c(C)c(OCC(O)CN2CCN(c3ccccn3)CC2)c1 (stereo not given) | . | -2.5% | 1.4% | -6.0%
COc1cc(NC(=O)CN2CCCCCC2)cc(OC)c1 | . | 0.4% | 6.1% | 0.2%
CC1CN(S(=O)(=O)c2cccc(C(=O)Nc3ccccc3N3CCCC3)c2)CC(C)O1 (stereo not given) | . | -0.1% | . | -25.9%
CN(CCc1ccccc1)C(=O)c1cc(COc2cccc(C(F)(F)F)c2)on1 | . | 3.4% | -8.0% | 21.5%
Cc1cc(S(=O)(=O)N2CCCC2C(=O)N2CCOCC2)c(C)cc1Cl (stereo not given) | -4.5 | 0.6% | -2.2% | 0.2%
O=C(CC1SC(N2CCCC2)=NC1=O)Nc1ccc(C(=O)NCCc2ccc(F)cc2)cc1 (stereo not given) | . | 0.6% | . | 1.6%
COc1cc(C)ccc1OCc1cc(C(=O)N(C)CCCN2CCOCC2)no1 | . | 2.0% | -64.5% | 2.8%
O=c1c(O)c(-c2ccc3c(c2)OCO3)oc2ccccc12 | -5.9 | ? | -34.4% | ?
O=C(COC(=O)COc1cccc(C(F)(F)F)c1)NC1CCCC1 | . | 3.0% | . | 28.5%
CSCCC1Nc2ccc(S(=O)(=O)N3CCOCC3)cc2NC1=O (stereo not given) | 2.0 | 1.0% | 0.6% | -3.2%
CN(CC(=O)Nc1ccccc1Cl)C(=O)c1cc(-c2cccs2)nn1-c1ccccc1 | . | 5.3% | . | 1.2%
COC(=O)[C@H]1C[C@H]2[C@@H]3CC[C@H]4C[C@@H](OC)CC[C@]4(C)[C@H]3CC[C@]2(C)[C@@]2(CCCO2)O1 | . | 0.6% | . | -5.7%
Cc1ccc(C(=O)NC2CCN(C(=O)NCc3ccccc3)CC2)cc1 | . | 2.9% | 0.0% | -7.6%
O=C(N/N=C/c1ccc[nH]1)c1ccccc1O | 7.4 | 2.4% | -14.3% | -18.8%
O=C(O)CCCCCCNS(=O)(=O)c1ccccc1 | 1.3 | -5.0% | 0.4% | -5.9%
O=C(CN1CCC(NC(=O)c2ccccc2F)CC1)NCc1ccc(F)cc1 | 18.5 | 0.6% | 8.2% | 9.0%
Cc1ccc(C(=O)CSc2nc3ccccc3c(=O)[nH]2)cc1 | -5.6 | 4.3% | -33.4% | -21.9%
CC(C)(C)C(=O)NC(=S)Nc1sc2c(c1C(N)=O)CCC2 | 5.9 | 3.7% | -30.9% | -9.1%
O=C(CCNS(=O)(=O)c1ccc2ccccc2c1)NCCOc1ccccc1 | . | -2.0% | . | -7.7%
CCOC(=O)c1cn2nc(-c3ccc(OCC)cc3)cc2nc1C1CCN(C(=O)OC(C)(C)C)CC1 | 6.0 | 5.1% | 0.4% | -3.1%
Cc1c(OC(C)C(=O)NCc2ccccn2)ccc2c3c(c(=O)oc12)CCCC3 (stereo not given) | . | -1.6% | 15.2% | -7.9%
